TRPML1 inh: blocks the human TRPML1 channel; Q9GZU1; TRPML1-inducible cells, Ca2+ dye fluorescence, FDSS; active compounds read low; inhibition of EC80 agonist-evoked calcium signal; activity change, negative = inhibition, % (concentration not given with the values); 0.02% of 390,000 active; AID 624415; in the data active means activity change below about -50%; inconclusive means about -30% to -50%; inactive means above about -30%;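 note: stimulus is agonist 54-4 at its EC80 concentration; % is set by controls: 0 for no effect and ±100 for the full control effect; the text of the record puts the active cut at -80%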
Target sequence (Q9GZU1 whole entry, looked up): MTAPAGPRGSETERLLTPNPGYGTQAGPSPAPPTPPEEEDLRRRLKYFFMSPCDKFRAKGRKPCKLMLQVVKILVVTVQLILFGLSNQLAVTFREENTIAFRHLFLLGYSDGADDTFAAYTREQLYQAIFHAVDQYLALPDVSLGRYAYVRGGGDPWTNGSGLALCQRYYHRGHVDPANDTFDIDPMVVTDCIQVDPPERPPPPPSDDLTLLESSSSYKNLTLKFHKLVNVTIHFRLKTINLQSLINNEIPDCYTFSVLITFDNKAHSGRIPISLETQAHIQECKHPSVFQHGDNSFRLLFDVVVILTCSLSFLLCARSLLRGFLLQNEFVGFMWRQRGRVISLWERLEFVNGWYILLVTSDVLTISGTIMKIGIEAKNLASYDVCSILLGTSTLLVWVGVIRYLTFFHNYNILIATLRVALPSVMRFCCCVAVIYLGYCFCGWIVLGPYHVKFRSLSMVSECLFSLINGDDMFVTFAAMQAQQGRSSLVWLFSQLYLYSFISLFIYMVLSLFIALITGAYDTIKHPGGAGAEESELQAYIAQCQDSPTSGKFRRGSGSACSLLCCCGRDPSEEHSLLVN
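TRPML1-DL cells, Tet-induced overnight (~16 h, 37 °C) at 1,500 cells/well, were loaded with Ca8 no-wash dye plus quencher for 45-90 min at room temperature. Compounds were pinned during FDSS kinetic reading; agonist 54-4 at EC80 (4 uM final) then added.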
ClpP mod: qHTS Assay for Activators of ClpP | 1.9% of 340,000 active | purified B. subtilis ClpP, FRET peptide cleavage, 20 min | ATP-dependent Clp protease proteolytic subunit (Bacillus subtilis (strain 168)), P80244 | Potency, µM (top dose mostly 57.5 µM), for inactives: at the top dose activity change, negative = active; active = well fitted falling curve with a large enough effect; inconclusive = small, poorly fitted or top-dose-only effect; inactive = no such curve, though single readings can be large or run the other way; note: potency is the fitted concentration of half-maximal effect; the source files actives as falling curves though it sought activators and does not explain the sign; nearly all actives have a fitted effect of over 65% in size; many hits overshoot -100%
Target sequence (P80244 whole entry, looked up): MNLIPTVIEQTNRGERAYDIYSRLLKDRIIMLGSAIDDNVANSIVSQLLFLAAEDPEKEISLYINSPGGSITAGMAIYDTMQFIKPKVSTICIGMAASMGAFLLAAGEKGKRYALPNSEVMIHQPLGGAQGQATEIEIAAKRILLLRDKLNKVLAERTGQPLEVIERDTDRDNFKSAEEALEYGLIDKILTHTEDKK
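FRET quenching reversal measured ClpP activation: 10 microg/mL B. subtilis ClpP at pH 8 with the FRET-FV decapeptide, read at 430 nm after 320 nm excitation. The 20-min minus 0-min signal was scaled between DMSO/no-enzyme wells and ADEP (5.8 microM final).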
TRPV1 potentiator: potentiators of human vanilloid receptor 1 (TRPV1) | Q8NER1 | TRPV1-expressing cells, Fluo-8 calcium influx, capsaicin EC20 potentiation; host cell line not named in the record; control for the full effect not named in the record | potentiation, % at 8.33 µM | 0.02% of 320,000 active | AID 540277; active means potentiation above 80%; inconclusive means 30% to 80%; inactive means below 30%; note: 0% is about no effect
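Cells expressing TRPV1 were dye-loaded with Fluo-8 and read kinetically: 10 s baseline, 3 min after compound (agonist portion), then 2 min after EC20 capsaicin (allosteric enhancer portion). Calcium-bound dye fluorescence at 480/520 nm.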
gsp antagonist: antagonizes gsp, the McCune-Albright syndrome mutation | 0.4% of 340,000 active | Potency, µM (doses to about 76.9 µM), for inactives: at the top dose activity change, negative = inhibition, actives largely listed as inhibitors | gsp-mutant cells, cAMP HTRF, 30 min; control for the full effect not named in the record; active = falling curve of any shape with a large fitted effect; inconclusive = falling curve, mostly with a smaller effect; inactive = flat or rising curve; cell line not stated here;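 note: intracellular cAMP measured with PDE inhibitor Ro 20-1724 present during compound exposure; potency is the fitted concentration of half-maximal effect; % is set by controls: 0 for no effect and ±100 for the full control effect; nearly all actives have a fitted effect of over 65% in size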
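Measurement of cellular cAMP by homogeneous time-resolved fluorescence following a 30 min compound exposure at 37C. The PDE inhibitor […] was present throughout; the assay buffer was DPBS with 0.05% BSA and 0.005% Tween 20.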
Sfp PPTase inh: blocks B. subtilis Sfp PPTase activity | 3.5% of 310,000 active | Q9F4F7 | Potency, µM, without a hit: max response, negative = inhibition, actives largely listed as inhibitors | Biochemical Sfp PPTase activity, qHTS; active = well fitted inhibition curve with a large enough effect; inconclusive = small, poorly fitted or top-dose-only effect, or another doubt; inactive = no such curve, though single readings can be large or run the other way;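 note: the enzyme is Sfp with the accession as filed and its product quenches rhodamine fluorescence; potency is the fitted concentration of half-maximal effect; 0% = enzyme reaction without inhibitor and -100% = no enzyme wells; top concentration of the series not given in the record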
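Buffer: 50 mM Hepes-Na pH 7.6, 10 mM MgCl2, 0.01% Nonidet P-40, 0.01% BSA. Enzyme 15 nM, pre-exposed to compound 15 min; substrates then added and fluorescence change tracked over 30 min.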
gsp agonist: gsp mutant agonism; gsp mutant cells, cAMP HTRF, 30 min; control for the full effect not named in the record; Potency, µM (titrated, usually from 76.9 µM), for the others: top-dose activation (cAMP increase), hits mostly activators; 0.13% of 340,000 active; AID 624287; active = well fitted activation curve with a large enough effect; inconclusive = small, poorly fitted or top-dose-only effect, or another doubt; inactive = no such curve, though single readings can be large or run the other way; cell line not stated here;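 note: phosphodiesterase inhibitor Ro 20-1724 added with compounds to block cAMP breakdown; potency is the fitted concentration of half-maximal effect; nearly all actives have a fitted effect of over 60% in size; about a fifth of the inactives were tested at one dose only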
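Cells stably selected in G418 were plated at 2000/well, grown 16-24 hr, then given compounds in DMSO with the PDE inhibitor […] (300 uM solution added) for 30 min at 37C; cAMP was read by HTRF.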
Menin-MLL FL inh: displaces fluorescein MLL peptide from human menin; Fluorescence polarization, fluorescein-MLL peptide displacement from menin; FP activity change, % at 61.4 µM; 290,000 tested, under 10 active; inconclusive = falling polarisation curve, or a change in total fluorescence; inactive = total fluorescence flat and polarisation flat or rising; no compound was filed as active; the % refers to the polarisation; negative = inhibition;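 note: % of control where 0% means no effect; inhibitors lower the polarisation; unlabelled MLL peptide was the positive control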
The depositor's hits bear a star; ? = inconclusive; / = not tested or not shown; & = joins results of further samples; [ ] = dose if it differs, or a comment.

SMILES	TRPML1 inh	ClpP mod	TRPV1 potentiator	gsp antagonist	Sfp PPTase inh	gsp agonist	Menin-MLL FL inh
CN(Cc1cccnc1)C(=O)c1cc(COc2ccc3ncccc3c2)on1	6	/	0	-32%	4%	3%[15.4 µM]	-0.2
O=C1NCCN(CC2CCN(CCC3CCCC3)CC2)C1=O	20	-2.1%	/	13%	/	/	/
CNC1=C(N(C(C)=O)c2ccc(Br)cc2)C(=O)c2ccccc2C1=O	-5	-1.8%	20	14%	11%	15%	6.5
Cc1nccnc1Sc1ccccc1	25	/	7	6%	23%	3%	0.8
COc1ccc(S(=O)(=O)N2CCCCC2)cc1NC(=O)C1CC1(Cl)Cl (centres undefined)	31	-0.4%	/	/	/	-79%[inhibitor]	/
CCCCCn1c(=O)[nH]c2cc(C(=O)N3CCN(c4ccccc4F)CC3)ccc2c1=O	-5&5	1.4%	-11	-5%	18%	26%	2.6
O=C(OCc1nc2ccccc2s1)c1ccc(Br)s1	-3	-6.4%	-27	7%	?	?	4.0
Cc1cccc(S(=O)C(c2ccccc2)c2ccccc2)c1 (centres undefined)	9	0.3%	/	-13%	/	-7%[15.4 µM]	/
CCCCN1C(=O)/C(=C2/Sc3ccc(Cl)cc3N2CC)SC1=S	/	/	-7	/	3%	/	?
COc1ccccc1CNC(=O)COc1ccc(S(=O)(=O)N2CCCC2)cc1	-16	/	6	-8%	18%	-5%[15.4 µM]	0.4
COc1ccccc1CC(=O)NCc1nn(-c2ccccc2)nc1C	-3	-6.5%	-7	11%	8%	-14%	1.2
Clc1ccc(C2=CSC3=NCCN23)cc1Cl	-2	240%	-3	3%	3%	21%	-0.7
CC(=O)C1=C(O)C(=O)N(c2ccc(O)cc2)C1c1cccc([N+](=O)[O-])c1 (centres undefined)	/	-2.2%	?	0%	25%	-35%[inhibitor]	-0.6
O=C(CCc1nc2ccccc2c(=O)[nH]1)Nc1ccc(Cl)c(Cl)c1	35	-5.5%	?	-4%	7%	1%	7.5
CC(=O)Nc1ccc(NC(=O)COC(=O)/C=C/c2ccc3c(c2)OCO3)cc1	-12	4.3%	6	-3%	/	-6%	/
O=C(COc1ccc(Br)cc1Br)NC(=S)N1CCCc2ccccc21	-22	-5.4%	6	-3%	56µM*	-35%[inhibitor]	1.0
COc1ccc(C(=O)Nc2ccccc2C(=O)NC(Cc2ccc(O)cc2)C(=O)NNC(=O)c2ccccc2Cl)cc1 (centres undefined)	-12	?	-3	?	45µM*	?	2.8
CCN1/C(=C/c2cc[n+](C)cc2)C=Cc2cc(C)ccc21	-2	-11%	-4	?	?	-27%	33[activator]
Cc1ccc(-n2nnnc2-c2cccs2)cc1[N+](=O)[O-]	1	-9.3%	/	-29%	/	-9%[15.4 µM]	/
NC(=O)c1ccc(NC(=O)COC(=O)C2CCN(S(=O)(=O)c3cccs3)CC2)cc1	-7	1.3%	/	2%	/	30%	/
N#CCn1cnc2c(oc3ccccc32)c1=O	-14	0.9%	2	14%	13%	-16%	-3.9
Cc1nnc(NC(=O)CSc2nccn2C)s1	0	-1.5%	24	-8%	-13%	-33%	1.5
Cc1nnc2c3ccccc3c(-c3ccccc3)nn12	11	-27%	/	6%	/	-2%	/
CC(=O)NC1=NN(C(C)=O)C(C)(c2ccccn2)S1 (centres undefined)	-2	/	4	-8%	3%	-1%	0.8
COc1cc(C(=O)N(CCc2ccccc2)C2CC3CCC(C2)N3C)cc(OC)c1OC (centres undefined)	24	1.1%	7	9%	-4%	8%	-0.8
CC[C@@H](CC1CCCCC1)C(=O)N(Cc1ccccc1)c1ccccc1	33	2.4%	/	-8%	/	/	/
CCOc1ccc(NC(=O)C2CSC(c3ccncc3)=N2)cc1 (centres undefined)	11	-3.6%	-8	-6%	-11%	33%	0.3
CC(C)c1onc(C(=O)NCc2ccccn2)c1[N+](=O)[O-]	3	/	3	8%	8%	-45%[inhibitor]	-0.5
Cc1nn(-c2ccccc2)c(C)c1NC(=O)COC(=O)c1ccc(S(=O)(=O)C(F)F)cc1	-1	-2.1%	-6	-1%	/	-26%	/
O=C(Nc1ccc(C(O)(C(F)(F)F)C(F)(F)F)cc1)c1ccc(Cl)c([N+](=O)[O-])c1	38	-2.1%	-58	35µM*	4%	-39%[inhibitor]	6.6
Cc1ccc(OCC(=O)Sc2ccc(C)cc2)cc1	-12	-1.4%	1	4%	1%	-2%	-1.7
Nc1ccc(OCc2ccco2)cc1	7	-2.6%	4	8%	17%	-55%[inhibitor]	-9.7
COc1cc(-c2nc3n(n2)C(c2cccc(OC)c2OC)C2=C(CCCC2=O)N3)cc(OC)c1OC (centres undefined)	3	11%	-2	14%	4%	11%	-0.7
CCOc1ccc(Cc2c(Cl)nc(SC)nc2N(C)C)cc1	7	-3.4%	1	5%	-20%	-21%	0.4
CCN(CC)c1ccc2c(c1)OC(N)=C(C#N)C2c1cccnc1 (centres undefined)	6	-4.9%	-6	6%	-4%	19%[15.4 µM]	?
O=C(CCN1C(=O)/C(=C\c2ccccc2Cl)SC1=S)Nc1cccnc1	-4	0.6%	-3	35µM*	10%	-55%[inhibitor]	-2.6
Cc1csc(NC(=O)c2c(-c3ccccc3)noc2C)n1	-6	/	5	-33%	18%	23%[15.4 µM]	1.6
CC(CCCC(C)(C)O)NCCO (centres undefined)	5	0.1%	/	0%	8%	?	3.4
COc1ccc(C)cc1-n1nnnc1SCC(=O)NC1CCS(=O)(=O)C1 (centres undefined)	5	1.3%	-8	12%	/	-6%	/
Cc1ccccc1NC(=O)CC1(c2ccc(N(C)C)cc2)C(=O)c2ccccc2C1=O	25	-0.2%	-12	-7%	-3%	-12%	2.3
Cc1nnc(NC(=O)c2nn(CC(C)C)c(=O)c3ccccc23)s1	14	/	-19	-12%	-15%	18%[15.4 µM]	-3.5
O=C(NC(=S)NNC(=O)c1cnccn1)c1ccc(Cl)cc1	26	/	?	6%	-1%	7%[15.4 µM]	0.6
CCC(=O)Nc1nnc(S(=O)(=O)N2CCCc3ccccc32)s1	-4	2.5%	?	6%	5%	?	-1.5
CC(=O)c1cccc(N(CC(=O)NC2CCCCC2)C(=O)Cn2nnc(-c3ccccc3)n2)c1	2	/	3	-9%	13%	-16%[15.4 µM]	/
CNS(=O)(=O)c1ccc(N2CCCC2=O)c([N+](=O)[O-])c1	-6	-1.9%	22	-13%	7%	0%[15.4 µM]	7.7
O=C(CCN1C(=O)C2C3C=CC(C4CC34)C2C1=O)Oc1ccc(Br)cc1 (centres undefined)	-6	/	-4	4%	13%	1%	-0.9
CCS(=O)(=O)N1CCC(NC(=O)c2cc(OC)cc(OC)c2)CC1	21	-1.5%	9	0%	22%	-29%	0.3
O=C(Cc1ccccc1F)Nc1nc(-c2ccc(F)cc2)cs1	9	/	-3	-16%	0%	-5%	-0.1
COC(=O)C1CCN(c2ccc(C(N)=O)cc2[N+](=O)[O-])CC1	14	?	-10	-7%	7%	-5%	4.3
CC(C)c1nc(CNC(=O)CC2C(=O)NCCN2Cc2ccccc2)cs1 (centres undefined)	-1	-5.4%	/	/	/	-90%[inhibitor]	/

Additional records.
SMILES	TRPML1 inh	ClpP mod	TRPV1 potentiator	gsp antagonist	Sfp PPTase inh	gsp agonist	Menin-MLL FL inh
CC(C)NC(=O)Nc1ccc2c(c1)C(=O)N([C@@H](C)CO)C[C@@H](C)[C@@H](CN(C)S(=O)(=O)c1ccc(F)cc1)O2	-1	4.1%	/	6%	/	/	/
O=C(N/N=C/c1cccc(O)c1)c1ccc(COc2cccc3cccnc23)cc1	6	-3.0%	11	-4%	15%	-94%[inhibitor]	-0.1
CCn1cnc2c1c(=O)n(CC(=O)Nc1ccc(C(N)=O)cc1)c(=O)n2Cc1ccccc1	-18	0.6%	-2	3%	7%	-6%	3.6
COc1ccc(N2CCN(C(=O)CN(c3cccc(OC)c3)S(=O)(=O)c3ccccc3)CC2)cc1	10	1.4%	4	-11%	3%	-47%[inhibitor]	-0.6
CCc1[nH]c(=O)c(C#N)c2c1CSC(C)(C)C2	22	?	?	7%	-14%	20%	-13
CC(=O)Nc1ccccc1C(=O)C(=O)Nc1ccc(C(=O)NCC2CCCO2)cc1 (centres undefined)	-2	/	1	7%	19%	20%[15.4 µM]	-1.3
CCOC(=O)N1CCC(NC(=O)c2ccc(CS(=O)(=O)c3ccc(OC)cc3)o2)CC1	19	-2.8%	-18	5%	18%	-32%[inhibitor]	0.0
COCC1CCN(Cc2cn[nH]c2-c2cc3ccccc3o2)C1 (centres undefined)	4	/	7	1%	8%	-13%	-3.1
CCc1cccc(CC)c1NC(=O)CN1CCN(S(=O)(=O)c2ccccc2)CC1	20	-0.6%	-4	-1%	5%	15%	0.7
S=c1[nH]nc(-c2cccnc2)n1/N=C/c1cccs1	20	1.6%	7	?	-10%	-17%	2.9
CC1=C(C(=O)OC(C)C)C(c2cccc([N+](=O)[O-])c2)n2c(cc(=O)[nH]c2=S)N1 (centres undefined)	5	-0.6%	14	-6%	?	-11%	0.2
CNC[C@H]1Oc2ccc(NC(=O)Nc3ccccc3)cc2CC(=O)N([C@H](C)CO)C[C@H]1C	-22	-2.1%	/	8%	/	-11%	/
CCC(=O)Nc1cc(C(=O)O)ccc1Sc1ccccc1	-2	-5.9%	25	-1%	15%	-8%	-0.5
Cc1ccc(NC(=O)CN(C)C(=O)COc2ccc(Br)cc2)cc1	-15	0.0%	/	/	/	-12%	/
C[C@@H]1CN([C@H](C)CO)S(=O)(=O)c2ccc(C#Cc3ccccc3)cc2O[C@H]1CN(C)C(=O)Nc1ccc2c(c1)OCO2	4	-7.0%	/	/	/	-13%	/
CCOc1cc(/C=C(/C#N)c2ccc(F)cc2)ccc1OCc1ccc(C(=O)O)o1	-1	-5.6%	-3	-19%	-1%	?	4.4
COc1ccc(N2C(=O)CCC(C(=O)O)C2c2ccc(OC)c(OC)c2)cc1 (centres undefined)	9	-4.1%	6	1%	0%	?	-0.1
Cc1cc(CNC(=O)C2(C(F)(F)F)CC(CCCO)CCCO2)nn1C (centres undefined)	1&-9	0.8%	/	3%	16%	35%	-4.6

Source: PubChem (National Center for Advancing Translational Sciences (NCATS))
